KCNQ2 inh: KCNQ2 potassium channel inhibitors, primary screen, cell-based, CHO-K1, FluxOR thallium flux, B-score (AID 2156); 20 min; hits give low values; only compounds with negative scores are shown here; some inactives read as strong as hits; B-score at 10 µM; 310,000 compounds, 1.1% hits;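 active = fluorescence ratio B-score at most minus 3 library SDs, with starting brightness B-score within 2 library SDs, cut at about -5.5 in these data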
Target sequence (O88943 whole entry, looked up): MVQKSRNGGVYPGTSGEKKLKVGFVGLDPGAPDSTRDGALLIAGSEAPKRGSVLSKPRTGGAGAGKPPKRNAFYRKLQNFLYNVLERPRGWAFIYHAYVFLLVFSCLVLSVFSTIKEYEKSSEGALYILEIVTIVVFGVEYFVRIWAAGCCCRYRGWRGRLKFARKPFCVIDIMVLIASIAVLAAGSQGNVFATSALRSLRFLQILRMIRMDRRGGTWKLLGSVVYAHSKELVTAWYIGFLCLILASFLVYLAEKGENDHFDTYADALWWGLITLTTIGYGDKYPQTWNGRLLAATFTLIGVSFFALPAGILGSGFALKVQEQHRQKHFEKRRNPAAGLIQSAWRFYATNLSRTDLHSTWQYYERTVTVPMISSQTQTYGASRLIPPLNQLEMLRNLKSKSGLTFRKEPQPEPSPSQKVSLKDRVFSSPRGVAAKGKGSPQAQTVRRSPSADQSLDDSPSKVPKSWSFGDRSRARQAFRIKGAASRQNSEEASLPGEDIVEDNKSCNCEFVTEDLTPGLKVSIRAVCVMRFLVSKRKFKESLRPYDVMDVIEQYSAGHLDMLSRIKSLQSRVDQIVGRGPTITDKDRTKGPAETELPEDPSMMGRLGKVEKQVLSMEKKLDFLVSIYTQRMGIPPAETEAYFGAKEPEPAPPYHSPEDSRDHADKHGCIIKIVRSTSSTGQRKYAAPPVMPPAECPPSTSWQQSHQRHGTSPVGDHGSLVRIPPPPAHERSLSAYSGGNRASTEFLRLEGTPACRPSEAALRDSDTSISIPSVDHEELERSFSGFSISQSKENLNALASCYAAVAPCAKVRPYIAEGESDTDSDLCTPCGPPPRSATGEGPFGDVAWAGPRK
KCNQ2 inh baseline: further read-out of KCNQ2 inh, marked with its call; B-score; measured here: initial fluorescence intensity artifact check;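 brightness before thallium and not channel activity; 0 = typical well and far values either way flag optical interference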
* hit, by the source's call; i = inactive.

Every second line gives: KCNQ2 inh	KCNQ2 inh baseline
1. Cc1ccccc1NC(=O)c1c(C)[nH]c(=S)c(C#N)c1-c1ccco1
  i	-1.9
2. O=C(CN1CCCCC1)NNC(=O)c1cccc(Br)c1
  i	0.15
3. COc1ccc(S(=O)(=O)N2CCN(C)CC2)c2ccccc12
  i	-0.01
4. CC(=O)Nc1ccc(S(=O)(=O)N2CCN=C2SCc2cccnc2)cc1
  i	-1.7
5. Cc1ccc(C(=O)N/C(=C\c2sccc2C)C(=O)NCc2ccncc2)cc1
  i	0.92
6. CCOC(=O)C(C(=O)OCC)C(Nc1ccc(Br)cc1)c1ccccc1 (stereo not given)
  i	1
7. Cc1cc(C2N=C(N)Nc3nc4ccccc4n32)c(C)n1-c1ccccc1Cl (stereo not given)
  i	0.83
8. COc1ccc(C2(CN(C(C)=O)C(C)=O)CCCC2)cc1OC
  i	1.2
9. COc1ccc(-c2cn3cccnc3n2)cc1F
  i	-0.73
10. COc1ccccc1NC(=O)CN1CCN(CC(=O)Nc2cc(C)ccc2OC)CC1
  i	-2
11. C=CCNc1cnn(-c2ccccc2)c(=O)c1Cl
  i	0.12
12. C/C(CCc1oc2ccccc2c1-c1ccc(C)o1)=N/O
  i	-0.99
13. CCn1cc(CN2CCCC(C(=O)Nc3cccc(-c4cc5ccccc5[nH]4)c3)C2)c(C)n1 (stereo not given)
  i	-0.57
14. CN1CCCN(S(=O)(=O)c2cccc(Cl)c2Cl)CC1
  i	1.9
15. CCCCN1C2=C(C(=O)CCC2)C(c2ccc(Cl)c(Cl)c2)C2=C1c1ccccc1C2=O (stereo not given)
  i	-1.4

(further entries)
Every second line gives: KCNQ2 inh	KCNQ2 inh baseline
16. COc1cc2c(cc1OC)CN(C(=O)Nc1ccccc1)CC2
  i	0.28
17. COc1cc(NS(=O)(=O)c2ccc(NC(=S)NC(=O)C3CCCC3)cc2)nc(OC)n1
  i	3.5
18. COCCCn1c(SCC(=O)OC2CCCCC2)nnc1-c1ccco1
  i	0.05
19. C=CCC1(NCc2ccco2)CCN(CC)CC1
  i	0.2
20. CC1CC(C)(C)NC(=S)N1CCC(=O)NCc1ccc(F)cc1 (stereo not given)
  i	3.2
21. O=C(Nc1ccc(Br)cc1)C1C2C=CC3(O2)C1C(=O)N(CCN1CCOCC1)C3C(=O)NC1CCCCC1 (stereo not given)
  i	-0.57
22. O=C(OCn1ncc(Cl)c(Cl)c1=O)c1ccc(C(F)(F)F)cc1
  i	0.82
23. COc1cc(-c2cc3nc4ccccc4n3c(N)c2C#N)cc(OC)c1OC
  i	0.94
24. CCOC(=O)C1=C(COC(=O)c2ncc(Cl)c(Cl)c2Cl)NC(=O)NC1C (stereo not given)
  i	0.1
25. CCCc1cc(Nc2cccc(OC)c2)n2ncnc2n1
  i	-0.22
26. Cc1ccccc1CN1C(=O)C(C)S/C1=N/N=C/c1ccco1 (stereo not given)
  i	-0.97
27. COc1cc(N2CCCC2)c(OC)cc1/C=C(/C#N)c1ccc(Br)cc1
  i	3.6
28. COc1cc(CNCCO)ccc1OCC(=O)Nc1ccc(Br)cc1
  i	-1
29. CCN(CC)S(=O)(=O)c1cccc(NC2=NCCCCC2)c1
  i	-1.1
30. COc1cc(N=Cc2c(O)[nH]c3ccccc23)cc(OC)c1OC
  i	-0.83

Full records as entered above. Screens in order: KCNQ2 inh	KCNQ2 inh baseline
COc1ccccc1NC(=O)CN1CCN(CC(=O)Nc2cc(C)ccc2OC)CC1 is listed as i	-2
CCOC(=O)C1=C(COC(=O)c2ncc(Cl)c(Cl)c2Cl)NC(=O)NC1C (stereo not given) is listed as i	0.1
COc1ccc(C2(CN(C(C)=O)C(C)=O)CCCC2)cc1OC is listed as i	1.2
CCCc1cc(Nc2cccc(OC)c2)n2ncnc2n1 is listed as i	-0.22

2 successive records out of the list so far, for reference:
Every second line gives: KCNQ2 inh	KCNQ2 inh baseline
16. COc1cc2c(cc1OC)CN(C(=O)Nc1ccccc1)CC2
  i	0.28
17. COc1cc(NS(=O)(=O)c2ccc(NC(=S)NC(=O)C3CCCC3)cc2)nc(OC)n1
  i	3.5

Next part.
Every second line gives: KCNQ2 inh	KCNQ2 inh baseline
31. CC(C)Cn1c(Br)nc2c1c(=O)n(CCC#N)c(=O)n2C
  i	1.1
32. Cc1cc(NC(=O)c2ccc(C)c([N+](=O)[O-])c2)no1
  i	-0.11
33. COc1cccc(NC(=S)N2CCN(S(=O)(=O)c3ccccc3)CC2)c1
  i	-0.69
34. Cc1ccc(NC(=O)C(C)C(=O)Nc2ccc(C)cc2)cc1
  i	-0.16
35. COc1ccc(-c2nn(-c3ccccc3)cc2C(=O)NC(=S)Nc2cc(Cl)ccc2Cl)cc1
  -7.7*	1.8*
36. O=C(O)CSc1c2c(nc3cc(C(=O)N4CCOCC4)ccc13)CCCC2
  i	0.07
37. c1cc(C(c2nnnn2C2CCCC2)N2CCOCC2)ccn1 (stereo not given)
  i	0.99
38. COc1ccc(NC(=O)C(Br)C(C)C)cc1 (stereo not given)
  i	-0.53
39. Cc1cc(OCC(=O)NCCN2CCOCC2)cc(C)c1Br
  i	-0.56
40. C/C(=N/Nc1nc(-c2ccc(Cl)cc2)cs1)c1cccs1
  i	-0.18
41. COCCNC(=O)Cn1nc(-c2ccc(Cl)cc2)c2ccccc2c1=O
  i	0.83
42. CCCCn1c(SCc2c(C)noc2C)nc2cc(S(N)(=O)=O)ccc21
  i	-1.9
43. Cc1ccc(-n2c(=O)c3c(C)c(C)sc3n(Cc3cc(=O)n4ccccc4n3)c2=O)cc1C
  i	-0.22
44. CC(=O)N1CC(C)Oc2ccc(S(=O)(=O)NC(CC(=O)O)c3ccc(C)cc3C)cc21 (stereo not given)
  i	-0.67
45. CCC(C)N(C(=O)COC(=O)c1cn(CC)c2nc(C)ccc2c1=O)C1CCS(=O)(=O)C1 (stereo not given)
  i	-0.25

Other entries.
Every second line gives: KCNQ2 inh	KCNQ2 inh baseline
46. CCOC(=O)N1CCN(S(=O)(=O)c2ccc(OC)c(Cl)c2)CC1
  i	-0.96
47. c1ccc(CN2CCC(Nc3nc(-c4cccnc4)nc4ccccc34)CC2)cc1
  i	-0.7
48. CCOc1c(Cl)cc(/C=N/NC(N)=S)cc1OC
  i	2.3
49. Cc1ccc(C(=O)NCc2ccco2)cc1S(=O)(=O)Nc1cccc(Cl)c1
  i	0.02
50. C/C=C1\COC(C(=O)NCc2ccncc2)(C(F)(F)F)C=C1C=C1CCCCC1 (stereo not given)
  i	1.5
51. O=C1CN(c2nc3ccccc3n3cnnc23)CC(=O)N1CCc1ccccc1
  i	-0.15
52. Cc1cccc2cc(/C=C/C(=O)c3ccco3)c(Cl)nc12
  i	-0.11
53. CN(CC(=O)Nc1ccc(F)cc1)C(=O)CCc1nc2sc3c(c2c(=O)[nH]1)CCCC3
  i	-1
54. Cc1csc(=O)n1CC(=O)OCC(=O)Nc1cc([N+](=O)[O-])ccc1Cl
  i	1.4
55. COc1cccc(OC)c1C(=O)NC(=O)Nc1c(F)cc(F)cc1F
  i	1.4
56. c1ccc(-c2nc(N3CCCCCC3)c3ccccc3n2)nc1
  i	0.07
57. O=C(NC1CC2CCCC(C1)N2C(=O)Nc1ccccc1)c1ccccc1 (stereo not given)
  i	0.88
58. CSc1nsc(/C=C/Nc2ccc(C(=O)O)cc2)c1C#N
  i	-0.27
59. Cc1cc2ncn(S(=O)(=O)c3ccc(S(=O)(=O)N4CCCCCC4)cc3)c2cc1C
  i	0.29
60. CCCCN(CC)C(=O)Cn1ncc2c3ccccc3n(CCC)c2c1=O
  i	-0.63

Remaining list, next part:
Every second line gives: KCNQ2 inh	KCNQ2 inh baseline
61. NS(=O)(=O)c1ccc(NC(=O)c2ccc3c(c2)CCN3S(=O)(=O)c2ccccc2)cc1
  i	0.27
62. COc1ccc(-c2nnn(CC(=O)N(CC(=O)NC3CCCC3)c3ccccc3F)n2)cc1OC
  i	0.53
63. CCOC(=O)Cn1nnc(-c2cc(OC)c(OC)c(OC)c2)n1
  i	-0.03
64. NNC(=O)CSc1cccc2cccnc12
  i	0.55
65. Cc1ccc(CNC(=O)C2CCN(S(=O)(=O)N3CCC4(CC3)OCCO4)CC2)cc1
  i	1.1
66. O=C(Cn1cnc2ccccc2c1=O)NCCC(=O)Nc1ccc2c(c1)OCO2
  i	2
67. O=C1CSC(c2ccccc2O)N1Cc1ccccc1 (stereo not given)
  i	3.1
68. Cc1sc(N2CCN(S(=O)(=O)c3ccc4c(c3)NC(=O)CO4)CC2)nc1-c1ccccc1
  i	2
69. O=C(Nc1cccnc1)c1ccc(NS(=O)(=O)c2cc([N+](=O)[O-])ccc2Cl)cc1
  i	-0.67
70. COC(=O)c1ccc(C(=O)OC)c(NC(=S)N2CCN(c3ccc(F)cc3)CC2)c1
  i	1.6
71. CC1=NCCN1CCNC(=O)Nc1ccc(F)cc1
  i	-2.5
72. CN1C(=S)SC(N(O)C(=O)NC2CCCCC2)C1(C)C (stereo not given)
  i	0.49
73. Cc1ccccc1C(=O)N1CCN(c2ccc(NC(=O)c3ccc4c(c3)OCO4)cc2)CC1
  i	1.5
74. CCC(/C=N/NC(=O)C(=O)N/N=C/C(CC)CC)CC
  i	0.08
75. CC(C)NC(=O)c1onc(CSc2cccc3ccccc23)c1C(=O)O
  i	-0.48

Random excerpt: two compounds from above
Every second line gives: KCNQ2 inh	KCNQ2 inh baseline
74. CCC(/C=N/NC(=O)C(=O)N/N=C/C(CC)CC)CC
  i	0.08
71. CC1=NCCN1CCNC(=O)Nc1ccc(F)cc1
  i	-2.5

Continued:
Every second line gives: KCNQ2 inh	KCNQ2 inh baseline
76. CCCOc1ccccc1/C=C(\C#N)C(=O)Nc1cccnc1
  i	0.03
77. COc1ccc(Cl)cc1N1C(=O)CC(Sc2ccccc2N)C1=O (stereo not given)
  i	-1.5
78. CCC(C)C(NC(=O)OC(C)(C)C)C(=O)NC(Cc1ccccc1)C(=O)OC (stereo not given)
  i	-2.5
79. CC(C)CC(=O)N1CCN(C(=O)CCC2CCCC2)CC1
  i	-1.5
80. NS(=O)(=O)c1ccc(CCNC(=O)CSc2ccccc2)cc1
  i	0.4
81. Cc1c(C(=O)N2CCC(Cc3ccccc3)CC2)cccc1[N+](=O)[O-]
  i	-1.9
82. C=CCn1c(Cc2cccs2)nnc1SCC(=O)c1cccc(Br)c1
  i	0.41
83. CN(C)c1ccc(P(=O)(Nc2cccc(C(F)(F)F)c2)N2CCOCC2)c(NC(=O)c2cccs2)c1 (stereo not given)
  i	-0.93
84. CNC(=O)N1c2ccccc2C=Cc2ccccc21
  i	0.08
85. CCCCN(CC(=O)Nc1c(C)cccc1CC)C(=O)SCC
  i	-0.33
86. COc1ccc(S(=O)(=O)N(C)CC(=O)NCCC2=CCCCC2)cc1C
  i	-1.2
87. COc1cc2c(cc1OC)-c1cc(N3CCCc4ccccc43)nc(=O)n1CC2
  i	0.49
88. Cc1cc(-c2n[nH]c(=S)n2Cc2ccco2)n(C)n1
  i	-0.69
89. CCN(C(=S)Nc1ccc(C(C)=O)cc1)C1CCCCC1
  i	0.44
90. CN(CC(=O)Nc1ccc(F)cc1)c1ccc(S(=O)(=O)N2CCCC2)cn1
  i	-0.05

New compounds follow.
Every second line gives: KCNQ2 inh	KCNQ2 inh baseline
91. CCCCNC(=O)CCn1c(=O)c2ccccc2n(Cc2cc(C)ccc2C)c1=O
  i	-0.07
92. Cc1ccc(-n2nc(C(=O)NCc3ccco3)c3c4ccccc4n(C)c3c2=O)cc1
  i	1.3
93. CCSc1nc(=O)n(-c2ccccc2)c(C)c1C(C)=S
  i	-0.02
94. CCS(=O)(=O)N1CCC(C(=O)N2CCN(Cc3ccccc3)CC2)CC1
  i	0.73
95. Cc1nn(C)cc1/C=C1\CCC/C(=C\c2cn(C)nc2C)C1=O
  i	-0.7
96. CC1CCN(C(=O)c2ccc3c(c2)NC(=O)CN3)CC1
  i	-0.86
97. O=C(C1Cc2ccccc2CN1S(=O)(=O)c1ccc(F)cc1)N1CCCCCC1 (stereo not given)
  i	1.9
98. COc1ccc(C(=O)NCc2cccnc2)cc1S(=O)(=O)N1CCCc2ccccc21
  i	2
99. COc1ccc2c(-c3ccccc3)cc3nnnn3c2c1
  i	1.1
100. COc1ccc(-c2noc(N3CCC(C(=O)Nc4ccc(F)cc4)CC3)n2)cc1
  i	-0.04
101. COc1ccccc1C1C2=C(CCCC2=O)N(CC(=O)O)C2=C1C(=O)CCC2
  i	-0.06
102. O=C(N1CCN(CCO)CC1)N1c2ccccc2C=Cc2ccccc21
  i	-0.75
103. COC(=O)c1ccccc1NC(=O)c1ccc2nccnc2c1
  i	-0.96
104. Cc1cccc(NC(=O)CSCC(=O)Nc2ccccc2N2CCCCC2)c1
  i	-1.4
105. COc1ccc2c(C)cc(=S)[nH]c2c1
  i	-1

Later entries:
Every second line gives: KCNQ2 inh	KCNQ2 inh baseline
106. Cc1ccccc1-n1c(SCC(=O)O)nc2sc3c(c2c1=O)CCCC3
  i	-0.37
107. Cc1cc(C(=O)NCCc2ccccc2)c2cc(F)ccc2n1
  i	-0.69
108. CCn1c(SCC(=O)OC)nnc1-c1ccc(C)cc1
  i	-0.03
109. O=C(Nc1c(F)cccc1F)c1cnc(N2CCN(c3ccccn3)CC2)c2ccccc12
  i	-1.9
110. O=C(Nc1ccc(Cl)cc1)Nc1nnc(SCc2ccccc2)s1
  i	-0.62
111. CCN=C1SC(C(=O)Nc2cccc(C)c2)CC(=O)N1CC (stereo not given)
  i	0.18
112. N#Cc1ccc(Oc2ccc(-c3nc4ccccc4nc3-c3ccccc3)cc2)cc1C#N
  i	-0.95
113. CC1Cc2ccccc2N1C(=O)c1nn(C)cc1Br (stereo not given)
  i	0.39
114. Cc1ccc(C(=O)NN2C(=O)C3C4c5ccccc5C(c5ccccc54)[C@@H]3C2=O)cc1 (stereo not given in full)
  i	-0.14
115. CCOC(=O)C1(Cc2cccc(Cl)c2)CCCN(C(=O)CCSC)C1 (stereo not given)
  i	0.29
116. COc1cccc(N2CCN(S(=O)(=O)c3cc4c(cc3Cl)NC(=O)CO4)CC2)c1
  i	0.38
117. COc1ccc(C(=O)NC2CC(C)(C)Cc3occc32)cc1 (stereo not given)
  i	0.65
118. N/C(=N\OC(=O)CC1CCCCC1)c1ccc([N+](=O)[O-])cc1
  i	0.19
119. CCC(=O)NCCc1nc2ccccc2n1CC(=O)c1ccccc1
  i	-1.3

Screening data from PubChem.

These rows are one share of the data; count on the stated rates, not on these rows.
